Assay outcomes as filed in PubChem BioAssay.
ID4 SMM: binders of human ID4 protein, primary screen, biochemical, small molecule microarray, single point | DNA-binding protein inhibitor ID-4 (Homo sapiens), P47928 | Flag-ID4 binding, fluorescence F/B | calls only | 31,000 tested, 1.2% active | AID 624137, 2012;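 active = spot signal over background at p below 0.07 in all four prints; compounds were printed on slides so no solution concentration is given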;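 note: a binder raises fluorescence above local background on the spot; about 2 pmol printed per array spot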
Calls only.

What do the screens show for `NC(=O)c1ccc(-c2nc(-c3ccc4c(c3)OCO4)c(-c3ccccn3)[nH]2)cc1`?
ID4 SMM: inactive

How did CC[C@H]1C(=O)OC[C@@H]1Cc1cncn1C do in these assays?
ID4 SMM: inactive

Results for CCCCOC(=O)c1ccc(N)cc1 ?
ID4 SMM: inactive

How did OCCOCCN1CCN(C(c2ccccc2)c2ccc(Cl)cc2)CC1 (stereo not given) do in these assays?
ID4 SMM: inactive

What do the screens show for `NC(=O)NC(=O)Cc1ccccc1`?
ID4 SMM: inactive

What do the screens show for `CCCCc1c(-c2ccc(OC)cc2)[nH]c2nccnc12`?
ID4 SMM: inactive

Results for Cc1cc(O)c2c(c1)C(=O)c1cccc(O)c1C2=O ?
ID4 SMM: inactive

Three entries already listed, ordered by number of heavy atoms, ascending:
Results for CCCCOC(=O)c1ccc(N)cc1 ?
ID4 SMM: inactive

How did CC[C@H]1C(=O)OC[C@@H]1Cc1cncn1C do in these assays?
ID4 SMM: inactive

How did OCCOCCN1CCN(C(c2ccccc2)c2ccc(Cl)cc2)CC1 (stereo not given) do in these assays?
ID4 SMM: inactive

Only part of the results is shown. The share of hits here may be higher or lower than overall.
